Screens as filed in PubChem BioAssay.
Autofluor counter – compound fluorescence in toxin protease inhibitor counterscreen | AID 624483 | hit rate 3.1% among 360,000 | compound autofluorescence counterscreen, microsphere flow cytometry; active compounds read high | fluorescence intensity (no concentration beside the values);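 active means at least 3 SD above the mean of all compounds, about 16000 in these data; inconclusive means too few beads counted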;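 further: 100 nL of 1 mM stock went into each well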
BJeLR viability – BJeLR cell viability loss | BJeLR (HRASV12) viability, CellTiter-Glo ATP luminescence, 48 h; reference of the scale not given here | inhibition, % (concentration not given with the values) | hit rate 0.17% among 300,000;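 active means replicate mean above 50%; inconclusive means above 50% but judged a plate artefact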;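 further: 50 nL library stock added to about 25 µL; numbers are from one replicate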
PrP UTR inh – suppresses PrP 5' UTR mRNA reporter expression; hit rate 0.35% among 340,000; cell-based PrP 5' UTR mRNA reporter, plate reader; AID 488862; inhibition, % (concentration not given with the values);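 active means every replicate at 50% or more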;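 further: 0 = median of the neutral control wells; tested in H4 reporter cells; numbers are from one replicate; inactives centre near -14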
Sa RN4220 lethal – S. aureus RN4220 growth inhibition | inhibition, % (no concentration beside the values) | OD600, 16 h | hit rate 0.33% among 330,000;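 active means z-score of -3 or lower and OD600 up to 0.18 on both plates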;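 further: plate controls were untreated cells for no effect and reference antibiotic for full effect; stock transfer was 100 nL into about 80 µL; one replicate is shown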
Mtb hypoxia rep – inhibitors of hypoxia-regulated fluorescent reporter in Mycobacterium tuberculosis | fluorescence inhibition, % (concentration not given with the values) | hit rate 0.1% among 300,000 | M. tuberculosis hypoxia-regulated fluorescent reporter, fluorescence;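 active means 35 to 45% if threefold the growth effect, above 45% if 1.5-fold the growth effect; inactive means the rest, general growth blockers included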;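 further: wells of about 50 µL received 100 nL stock; 0% = vehicle wells and 100% = reference inhibitor wells; whole bacteria with a GFP reporter of the hypoxia response; strong numbers were not always called active; many hits fall short of the cut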
Sa ugtP lethal – growth inhibition of S. aureus ugtP deletion strain. growth inhibition, % (concentration not given with the values). AID 1259309. S. aureus RN4220 ugtP deletion, OD600 growth, 16 h; some inactives read as strong as hits. hit rate 0.54% among 330,000;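 active means z-score under -3 and OD600 up to 0.15 on both plates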;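 further: plate controls were untreated wells for no effect and antibiotic for full effect; wells of about 80 µL received 100 nL stock; the first replicate is given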
Mtb hypoxia rep growth – also measured in Mtb hypoxia rep; calls as there; growth inhibition, %; measured here: M. tuberculosis growth (absorbance);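 0% = vehicle and 100% = reference antibiotic; read after six days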
* = called active by the depositor; ? = inconclusive; · = no result given. Rows are unselected, and some 4% of all compounds hit somewhere here.

Value order – Autofluor counter, BJeLR viability, PrP UTR inh, Sa RN4220 lethal, Mtb hypoxia rep, Mtb hypoxia rep growth, Sa ugtP lethal
O=C1CCCC(=O)N1c1ccc(NCCOCCO)c([N+](=O)[O-])c1
→ 4000, 22, -15, 2.2, 3, 1, -4
COc1ccc(S(=O)(=O)N2CCCC(C(=O)NC3CCCCC3)C2)cc1 (configuration not stated)
→ 4531, -11, -39, 3.1, 9, 8, 8
O=C(NCC1COc2ccccc2O1)C1CCN(S(=O)(=O)c2ccc(Cl)cc2)CC1 (configuration not stated)
→ 3598, ·, -12, 0.4, 12, 4, -4
O=C(CN(Cc1ccc(F)cc1)C(=O)Cn1nnc2ccccc21)NCC1CCCO1 (configuration not stated)
→ 11277, -8, -2, 6.6, 5, 7, -1
CC(=O)c1cccc(NS(=O)(=O)c2cc(OCC(N)=O)c(C)cc2Cl)c1
→ 19294*, -2, -21, 5.4, 11, 6, -6
COCCN(C(=O)c1cc(-c2ccncc2)nc2ccccc12)c1c(N)n(CC(C)C)c(=O)[nH]c1=O
→ 4794, 1, -6, 5.6, 0, -1, 6
O=C(NCCc1ccccc1)c1ccc2nc(N3CCOCC3)sc2c1
→ 5802, 6, -35, -1.9, 0, 7, 8
CN(C)C=Nc1nonc1-c1ccc(Cl)cc1
→ 6423, -1, -25, 9.1, -5, 0, 1
CCOC(=O)c1c(CN2CCCCC2)n(C)c2cc(Br)c(O)c(CN(C)C)c12
→ 5088, 8, -9, 1.1, 8, 5, 13
O=C(Nc1ccccc1NC(=O)NC1CCCCC1)NC1CCCCC1
→ 16874*, 3, 40, 5.5, 4, -1, 2
COc1ccc(C(C)(C)C)cc1NC(=O)Nc1ccc2c(c1)OCO2
→ 3845, -5, -7, -12, 12, -1, 21
O=C(O)CC(CNS(=O)(=O)c1cccc2nsnc12)c1ccccc1 (configuration not stated)
→ 3251, -11, -20, 5.1, 2, 0, 6
COc1ccc(NC(=S)NC2CCS(=O)(=O)C2)cc1 (configuration not stated)
→ 2454, -5, -6, 1.6, 4, 11, 0
O=C(N/N=C/c1cc(O)ccc1[N+](=O)[O-])c1ccc2c(c1)OCCO2
→ 4194, 13, -35, ·, ·, ·, ·
Cc1ccc(-c2c3c([nH]c(=S)c2C#N)CCCC3)o1
→ 24820*, 0, -76, -1.8, 1, 8, -4
CN(CC(=O)Nc1cccc(F)c1)CC(=O)N1CCc2ccccc21
→ 5376, ·, -12, -7.8, -6, 1, -8
COC(=O)C1CCN(C(=O)COC(=O)c2oc3ccccc3c2C)CC1
→ ?, -8, -17, 1.5, 12, 10, 2
COC(C[C@@H]1O[C@@H]1C(=O)[C@H](C)OCc1ccccc1)OC
→ 4531, 1, 2, ·, ·, ·, ·
Cc1cc(C)c(S(=O)(=O)Nc2cccc(/C=C/C(=O)O)c2)c(C)c1
→ 8110, -5, -8, ·, ·, ·, ·
COc1cccc(CN2CC(C(=O)NCCOc3cccnc3)CCC2=O)c1 (configuration not stated)
→ 4434, -7, -14, 1.1, 2, -14, 0
COC(=O)[C@]1(CC(C)C)NC(c2ccc(-c3ccccc3)cc2)C2C(=O)N(C)C(=O)C21 (some centres not stated)
→ ·, ·, ·, 4.0, 5, 7, 1
COc1ccc(CCNC(=O)C2CC(c3ccccc3[N+](=O)[O-])=NO2)cc1 (configuration not stated)
→ 4052, -3, -51, 3.3, 19, 16, 5
COc1ccc(C2C3C(=O)N(C(C)(C)C)C(=O)C3[C@]3(C)C(=O)N(c4cccc(Br)c4)C(=O)N23)cc1 (some centres not stated)
→ ·, ·, ·, 10, -6, -8, 2
Oc1[nH]c(N=C2N=c3ccccc3=N2)c2ccccc12
→ 3598, 54*, -71, 4.6, 20, 8, 20
Cc1ccc(S(=O)(=O)/N=C2\C(=O)c3ccccc3C([O-])=C2n2cc[n+](CCC(C)C)c2)cc1
→ 11588, -5, -7, 14, 6, 12, 3
CN(C)S(=O)(=O)n1cc(/C=C(\NC(=O)c2ccccc2)C(=O)NCCCN2CCOCC2)c2ccccc21
→ 5456, -17, -11, -1.1, -3, -1, -6
CCc1ccccc1S(=O)(=O)Cc1ccc(C(=O)NCc2ccc3c(c2)OCO3)o1
→ 5816, -9, -18, 2.4, ·, ·, 19
c1ccc(-c2nc(-c3cccnc3)cs2)cc1
→ 3831, 1, -54, 8.2, 21, -1, 10
O=C(Nc1ccc(F)cc1F)NC1CCCCCCC1
→ 5769, ·, -53, 2.1, 22, 44, 4
CCN(CC)P(=O)(/C(Cl)=C\Nc1c(C)n(C)n(-c2ccccc2)c1=O)N(CC)CC
→ 2668, -9, 7, 3.3, ·, ·, -1
C/C(CC(=O)c1ccccc1)=N\NC(=O)CC#N
→ 4120, -1, 17, ·, ·, ·, ·
CN(C)C(CNC(=O)c1ccc(Br)cc1)c1ccco1 (configuration not stated)
→ 3881, -6, -11, 1.9, 14, 0, 5
Cc1cc(C)nc(N/N=C/c2ccc(N3CCOCC3)cc2)n1
→ 3514, 2, 17, ·, ·, ·, ·
c1ccc(-c2oc3ncnc(NCCCn4ccnc4)c3c2-c2ccccc2)cc1
→ 5736, 1, -29, -2.3, 3, 9, -10
O=C(C1CCN(S(=O)(=O)N2CCCCC2)CC1)N1CCCCC1
→ 10266, 6, -30, 3.7, 9, 1, 5
O=C(NN1CCOCC1)c1ccc(S(=O)(=O)N2CCCCC2)cc1
→ 3277, 11, -11, 5.0, 15, -5, -66
O=S(=O)(Nc1nccs1)c1ccc(Br)cc1
→ 4527, -3, -9, 16, 4, -5, 12
O=C(NN=Cc1ccc(OC(=O)c2ccccc2Br)cc1)c1ccccn1
→ ·, ·, ·, 4.2, 6, 3, -2
CN1CCC(N(C)C(=O)c2ccc(Cl)c(S(=O)(=O)N3CCc4ccccc43)c2)CC1
→ 2794, ·, 9, -0.7, -4, 1, 0
Oc1ccccc1CNCc1ccccc1
→ 4687, ·, -22, 7.9, -5, -3, 3
Cc1cc2cc(CN(Cc3nnnn3C3CCCCC3)CC3CCCO3)c(=O)[nH]c2cc1C (configuration not stated)
→ 13577, -2, -12, 9.4, 1, 6, 3
CC[C@@H]1CCCCc2ccccc2[C@H](C(=O)C[C@@H](O)CC(C)=O)OC1=O
→ 4119, ·, -7, 2.1, 9, 0, 7
Cc1ccccc1CSCC(=O)Nc1ccccc1F
→ 3702, -15, -49, 3.8, 3, 1, -3
CCc1ccccc1NC(=O)NCc1ccccn1
→ 5862, -7, -26, -0.6, -5, 0, 4
Cc1cc(C)c2c(=O)[nH]c(SCC(=O)N3CCOCC3)nc2n1
→ 4082, -4, -73, 3.8, 18, 8, 3

Two of the compounds above, with tabs:
SMILES	Autofluor counter	BJeLR viability	PrP UTR inh	Sa RN4220 lethal	Mtb hypoxia rep	Mtb hypoxia rep growth	Sa ugtP lethal
O=S(=O)(Nc1nccs1)c1ccc(Br)cc1	4527	-3	-9	16	4	-5	12
O=C(NN=Cc1ccc(OC(=O)c2ccccc2Br)cc1)c1ccccn1	·	·	·	4.2	6	3	-2

The results go on.
Value order – Autofluor counter, BJeLR viability, PrP UTR inh, Sa RN4220 lethal, Mtb hypoxia rep, Mtb hypoxia rep growth, Sa ugtP lethal
CC1(NC(=O)c2cccc(S(=O)(=O)N3CCCc4ccccc43)c2)CCS(=O)(=O)C1 (configuration not stated)
→ 5265, ·, 4, 6.0, 0, -1, 0
N/C(Cc1ccc([N+](=O)[O-])cc1)=N\OC(=O)C1CCCCC1
→ 3295, 4, -25, ·, ·, ·, ·
Clc1ccc(CN2CCN(c3ncccn3)CC2)c(Cl)c1
→ 4112, -4, -8, 7.2, 0, 2, 7
CC1=CC(C)(C)N(C(=O)CSc2nccn2C)c2cc(C)ccc21
→ 13005, -5, -16, 8.3, 17, 10, 1
CCn1c(-c2ccccc2Cl)nn(CC(=O)Nc2ccc(OC)cc2)c1=S
→ 2422, 0, -12, -10, 18, 2, 0
O=C(Cn1c(=O)n(-c2ccc(F)cc2)c(=O)c2sccc21)N1CCCC1
→ 8534, -3, ·, -1.1, 11, -7, 2
CC(C)N(CCC(=O)c1ccc2ccccc2c1)Cc1ccccc1
→ 4337, ·, -21, 2.2, 4, -3, 10
CC(NC(=O)CSc1nnc(-c2cc3cc(Cl)ccc3o2)n1C)c1ccccc1 (configuration not stated)
→ 4482, -2, -16, -2.9, 4, 9, -2
COc1cccc(C=NNC(=O)CON=C(C)c2cccs2)c1OC
→ ·, ·, ·, 3.4, 5, 2, 7
Cc1nc(N)ncc1Sc1ccccc1
→ 4940, -9, -15, 2.6, 17, 6, 4
O=C1C=C(c2ccc3c(c2)OCO3)CC(c2ccc(Cl)cc2)C1 (configuration not stated)
→ ·, ·, ·, 1.4, 4, -2, -2
CCn1c(SCC(=O)c2ccc3c(c2)OCCO3)nnc1-c1ccco1
→ 4751, -7, -14, 9.4, ·, ·, 0
COc1ccc2oc(C(=O)OC/C(O)=C(\C#N)c3nc4ccccc4[nH]3)c(C)c2c1
→ 4860, 2, -24, 1.2, 3, -8, 5
CCCCCn1c(=O)c(C(=O)NCc2ccncc2)c(O)c2ccccc21
→ 3440, -6, -8, -4.1, 11, 2, -3
CCOC(=O)c1[nH]cnc1C(=O)NC(C)c1ccccc1 (configuration not stated)
→ ·, ·, ·, -0.2, -3, -2, 0
Cc1nn(-c2ccccc2)c(Cl)c1C(=O)OC(C)C(=O)NC(=O)NC1CCCCC1 (configuration not stated)
→ 3619, 2, -11, -2.1, ·, ·, 15
COC(Cc1n[nH]c(=S)n1-c1ccccc1)OC
→ 15936, 4, -7, 1.3, 7, -5, 8
CCC(C)(C)C1CCC2(CC1)NC(=O)N(CC(=O)NCCc1c[nH]c3ccccc13)C2=O (configuration not stated)
→ 3742, ·, 7, 1.5, -7, 2, -10
CC(C)=NNc1nc2sc3c(c2c(=O)[nH]1)CC(C)(C)OC3
→ 2175, -6, -20, 3.8, 8, -2, 3
COc1ccc(C(C(=O)NCc2ccccc2)N(C(=O)c2snc(C(N)=O)c2N)C2CCCC2)cc1O (configuration not stated)
→ 3946, 1, -26, ·, ·, ·, ·
COc1cc(C2C(C#N)=C(N)Oc3cc(C)n(CC4CCCO4)c(=O)c32)cc2c1OCO2 (configuration not stated)
→ 2520, -5, -15, -16, 4, 5, -2
COc1ccc(-c2nnc(SCC(=O)Nc3sc4c(c3C#N)CCC4)n2CC2CCCO2)cc1 (configuration not stated)
→ 2255, ·, -20, 3.9, ·, ·, 1
O=[N+]([O-])c1ccc(CN2CCOCCOCCN(Cc3ccc([N+](=O)[O-])cc3)CCOCC2)cc1
→ 2536, -5, 3, ·, ·, ·, ·
O=C(Cc1ccc(S(=O)(=O)N2CCOCC2)s1)NNC(=O)c1ccccc1Cl
→ 2924, ·, -22, -1.7, 2, 2, -3
CC(OC(=O)Cc1n[nH]c(=O)c2ccccc12)C(=O)Nc1cc(Cl)cc(Cl)c1 (configuration not stated)
→ 4981, -3, -2, -0.6, 5, 5, -5
O=C(NC(=S)NCc1ccccc1)c1ccccc1Br
→ 3003, -3, -5, 1.0, 22, 13, 12
CCCCNC(=O)N1CCOCCOCCN(C(=O)NCCCC)CCOCC1
→ 2362, -4, -21, -0.7, ·, ·, 6
COC(C(=O)NC1CCCCCCC1)c1ccccc1 (configuration not stated)
→ 2161, 20, -33, 5.4, 14, 9, 12
CSC(=NC#N)N1CCN(c2ccccn2)CC1
→ 4204, -2, -8, ·, ·, ·, ·
O=C(CC1Oc2ccccc2NC1=O)NCCc1ccccc1 (configuration not stated)
→ 5105, -1, -9, 2.7, ·, ·, -7
CC(=O)NC12CC3CC(C1)CC(C(=O)NCc1ccc(C)cc1)(C3)C2
→ 8327, -8, -11, -2.7, -5, -3, -1
Cn1cccc1C(=O)OCC(=O)c1cc2ccccc2o1
→ 20874*, -9, -18, 14, -2, 5, 8
Cc1cc(C)cc(-n2c(C)cc(C(=S)N3CCOCC3)c2C)c1
→ 7085, 9, -7, 3.6, 2, 7, -4
CC(=NN1C(=O)CSC1=S)c1ccc(Br)cc1
→ ·, ·, ·, 3.7, 5, 17, -3
CCc1ccc(C=NNC(=O)c2cc(-c3cccc([N+](=O)[O-])c3)n[nH]2)cc1
→ ·, ·, ·, 0.0, 10, 3, -15
COc1ccc(/C=C2\SC(=O)N(CCC(=O)Nc3ccccc3)C2=O)cc1OC
→ 2778, -6, -32, 7.4, -8, 1, -1
Nc1nnc(-c2ccccc2Cl)s1
→ 4436, -5, 1, 3.2, ·, ·, 0
CCN(Cc1ccccc1)c1c(C(=O)O)cnc2c1cnn2C
→ 3071, 4, -17, 7.2, 12, 2, 9
